XIAP antagonists: XIAP antagonists, biochemical, IAP family, fluorescence polarization (AID 1018); actives 0.007% (n = 200,000); one-dose displacement, % at 20 µM; IC50 in µM for titrated hits; XIAP BIR domain, fluorescence polarization peptide displacement; higher % means a stronger effect; in the data active means displacement above about 50%; further: a part of the inactive calls stands beside numbers as strong as those of hits
TNAP activation fold: human TNAP enzyme activators, primary screen, biochemical, luminescent, no phosphate acceptor, uHTS (AID 1001) | purified TNAP, luminescent activation assay, no phosphate acceptor; higher activation fold means a stronger effect | activation fold at 20 µM, or EC50 in µM where a hit was titrated | actives 0.03% (n = 200,000); in the data active means activation fold from about 3, or a potency from the dose series; inactive means the rest, 99 in 100 with activation fold below about 1.6; further: many of its hits are not listed in these tables
KOR agonists: kappa opioid receptor activators – cell-based, luminescence, uHTS, primary screen (AID 1777) | KOR beta-arrestin recruitment, luminescence; higher % means a stronger effect | activation, % at 10 µM; hits with a dose series show EC50 in µM | actives 0.02% (n = 280,000); in the data active means activation above about 50%, passing the limit was not always enough; further: a part of the inactive calls stands beside numbers as strong as those of hits
LYP phosphatase: PTPN22 lymphoid phosphatase activity blockers – biochemical, fluorescence intensity, uHTS (AID 1779) | recombinant LYP phosphatase, fluorescence intensity; higher % means a stronger effect | inhibition, % at 11.5 µM; hits with a dose series show IC50 in µM | actives 0.054% (n = 290,000); in the data active means inhibition above about 50%;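 further: plate controls were vehicle with enzyme for no effect and no enzyme for full effect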
* marks the source's active call; other numbers are inactive results; · = not tested or not shown.

[1] O=C(O)C=C1CCN(c2ncc(C(F)(F)F)cc2Cl)CC1
[2] O=C(Cn1c(SCc2ccccc2)nc2ccccc21)N1CCOCC1
[3] COC(=O)C(NNc1ccccc1)(NC(=O)c1ccccc1F)C(F)(F)F (stereo not given)
[4] COc1ccc(Oc2ccccc2C=O)cc1
[5] CN(C)c1cc[n+](CC(=O)Nc2ccc([N+](=O)[O-])cc2Cl)cc1

screen / no.	1	2	3	4	5
XIAP antagonists	-1.7%	-3.2%	0.8%	-1.3%	-4.0%
TNAP activation fold	1	1	1.1	1.1	1.1
KOR agonists	-0.2%	·	-3.0%	2.6%	-1.0%
LYP phosphatase	0.1%	-7.8%	-8.1%	0.3%	-2.3%

[6] Cc1ccc(SCc2nnc(NC(=O)c3ccccc3)s2)cc1
[7] CC1(C)CC(=O)C(C(c2ccccc2F)C2C(=O)CC(C)(C)CC2=O)C(=O)C1
[8] CC(C)OC(=O)NCCOC(=O)Nc1cccc(Cl)c1
[9] O=C(CCC(=O)OCc1ccc(Cl)cc1)Nc1cccc([N+](=O)[O-])c1
[10] CCN(CCCNC(=O)C1CCN(S(=O)(=O)CC)CC1)c1cccc(C)c1

screen / no.	6	7	8	9	10
XIAP antagonists	-0.7%	-5.9%	-3.8%	-4.8%	-1.3%
TNAP activation fold	0.9	1	1.1	1.1	1.1
KOR agonists	-2.1%	6.3%	4.1%	1.9%	1.4%
LYP phosphatase	-1.1%	-0.3%	-8.8%	-5.5%	-5.0%

[11] CCCS(=O)(=O)N1CCCC(C(=O)NCc2cccnc2)C1 (stereo not given)
[12] O=C(c1ccco1)N1CCN(c2ncccn2)CC1
[13] Cc1ncc(N=Nc2ccccc2Cl)c(-c2ccccc2)n1
[14] CCOc1c2ccc(C(=O)NCc3ccc(C)cc3)cc2nn1CC
[15] CCCc1cc(=O)[nH]c(SCC)n1

screen / no.	11	12	13	14	15
XIAP antagonists	-0.5%	-1.5%	-1.0%	-6.1%	-3.2%
TNAP activation fold	1.1	1.1	1.1	1.1	0.9
KOR agonists	3.6%	-1.0%	1.5%	4.1%	0.8%
LYP phosphatase	-13.3%	-8.8%	-0.1%	-7.8%	1.9%

[16] COC(=O)[C@H](CCSC)NC(=O)NCc1ccccc1F
[17] CCN(CC)S(=O)(=O)c1cccc(C(=O)Nc2ccc(Cl)cn2)c1
[18] O=c1c2ccccc2nnn1CSc1nnc(COc2ccc(Cl)cc2)n1Cc1ccco1
[19] NC(=O)CNC(=O)[C@@H]1CC2(CC(c3ccc(Cl)cc3)=NO2)CN1C(=O)c1ccccc1 (stereo not given in full)
[20] Cc1cc(C)nc(N2CCC(C(=O)NCCc3ccc(F)cc3)CC2)n1

screen / no.	16	17	18	19	20
XIAP antagonists	-20.8%	-1.8%	-2.9%	-9.6%	-3.7%
TNAP activation fold	1.1	1	1	1	1
KOR agonists	0.9%	-4.9%	3.1%	5.4%	2.3%
LYP phosphatase	-10.0%	-10.4%	1.1%	-0.7%	-7.0%

Three entries out of the list above, ordered by the value under KOR agonists, highest first.
[19] NC(=O)CNC(=O)[C@@H]1CC2(CC(c3ccc(Cl)cc3)=NO2)CN1C(=O)c1ccccc1 (stereo not given in full)
[18] O=c1c2ccccc2nnn1CSc1nnc(COc2ccc(Cl)cc2)n1Cc1ccco1
[20] Cc1cc(C)nc(N2CCC(C(=O)NCCc3ccc(F)cc3)CC2)n1

screen / no.	19	18	20
XIAP antagonists	-9.6%	-2.9%	-3.7%
TNAP activation fold	1	1	1
KOR agonists	5.4%	3.1%	2.3%
LYP phosphatase	-0.7%	1.1%	-7.0%

Next records follow:
[21] COc1ccc(CCNC(=O)Cc2cc(OC)c(OC)cc2[N+](=O)[O-])cc1OC
[22] CC(NC1CCCC1)C(=O)Nc1ccccc1-c1ccccc1 (stereo not given)
[23] CCCc1cc(=O)oc2c(CN3CCOCC3)c(O)ccc12
[24] CCOc1ccc(OCC)c(NC(=O)CN(C)S(=O)(=O)c2cnc[nH]2)c1
[25] c1ccc2c(-c3c[nH]c4ccccc34)c3ccccc3nc2c1

screen / no.	21	22	23	24	25
XIAP antagonists	-0.4%	-4.5%	-0.1%	-3.2%	-4.7%
TNAP activation fold	1.1	1	1.1	1	1.1
KOR agonists	-2.8%	3.0%	-1.1%	7.0%	3.2%
LYP phosphatase	-12.4%	-8.4%	-30.6%	-7.9%	1.3%

[26] COc1ccc(C(=O)C(CCCCC(CN(C)C)C(=O)c2ccc(OC)cc2)CN(C)C)cc1 (stereo not given)
[27] O=C(NCc1ccc(Cl)cc1)c1cnccn1
[28] COc1ccc(Nc2ncc(C(=O)N3CCN(Cc4ccccc4)CC3)c3ccccc23)cc1
[29] O=C(CN1CCN(S(=O)(=O)c2ccc(Cl)cc2)CC1)Nc1ccc2c(c1)OCO2
[30] CC(=O)N(C)/C=C1\Sc2ccccc2C1=O

screen / no.	26	27	28	29	30
XIAP antagonists	-0.7%	-6.8%	-6.0%	4.4%	-0.7%
TNAP activation fold	1	1.1	0.9	1.1	1
KOR agonists	5.4%	5.8%	4.7%	0.7%	0.5%
LYP phosphatase	-1.3%	-11.7%	0.4%	0.0%	-3.0%

[31] O=C(COC(=O)c1ccncc1)NC(=O)C1CCCCC1
[32] Cc1ccccc1-c1cc(C(=O)Nc2nc3c(s2)CCCC3)c2ccccc2n1
[33] CS(=O)(=O)N1CC(C(=O)NC2CCCC2)Oc2ccc(Cl)cc21 (stereo not given)
[34] Cc1ccnc(NC(=S)NC(=O)c2ccco2)c1
[35] Cc1ccc(C2CC(=O)c3cnc(N4CCc5ccccc5C4)nc3C2)cc1 (stereo not given)

screen / no.	31	32	33	34	35
XIAP antagonists	-0.7%	-0.8%	0.9%	0.1%	-1.2%
TNAP activation fold	1.1	1	1.1	1.1	1.1
KOR agonists	-1.2%	9.6%	0.1%	6.6%	2.3%
LYP phosphatase	1.2%	14.5%	-1.4%	-2.8%	-5.6%

[36] c1ccc(-c2nc(NCc3ccco3)c3oc4ccccc4c3n2)cc1
[37] COc1cc(OC)c(OC)cc1CN(C)C(c1ccccc1)c1nnnn1-c1ccccc1C (stereo not given)
[38] COC(=O)Nc1ccc(=O)n(Cc2c(Cl)cccc2Cl)c1
[39] CC(C)(C)n1ncc2c(=O)n(Cc3ccc(Cl)cc3Cl)cnc21
[40] CC1=NN(c2ccc(Br)cc2)C(=O)/C1=C/c1cccs1

screen / no.	36	37	38	39	40
XIAP antagonists	-7.0%	0.5%	-7.2%	-2.1%	-7.0%
TNAP activation fold	1.1	1.1	1	1.1	0.9
KOR agonists	3.2%	9.4%	-2.9%	2.7%	1.2%
LYP phosphatase	-1.9%	1.5%	-11.9%	2.4%	-1.6%

[41] COc1ccc(S(=O)(=O)NC(CC(=O)NC2CCCC2)c2ccco2)cc1 (stereo not given)
[42] CCOc1ccc(NC(=O)CCSc2nnc(C)s2)cc1
[43] CN1CCN(NC(=O)CN2C(=O)/C(=C/c3c(Cl)cccc3Cl)SC2=S)CC1
[44] Cc1snc(SCC(=O)N/N=C(\N)COc2cccc(C(F)(F)F)c2)c1C#N
[45] CC(C)(C)NC(=O)CN(Cc1cccs1)C(=O)C1COc2ccccc2O1 (stereo not given)

screen / no.	41	42	43	44	45
XIAP antagonists	-4.1%	-4.5%	-3.8%	-3.4%	-6.0%
TNAP activation fold	1.1	1.1	0.8	1	1.1
KOR agonists	3.5%	3.1%	-1.2%	-0.2%	4.5%
LYP phosphatase	-6.2%	-5.3%	3.1%	-3.5%	-11.0%

Complete entries, looked up by structure. Screens in order: XIAP antagonists | TNAP activation fold | KOR agonists | LYP phosphatase
Entry for CN1CCN(NC(=O)CN2C(=O)/C(=C/c3c(Cl)cccc3Cl)SC2=S)CC1 : -3.8% | 0.8 | -1.2% | 3.1%
Entry for CC(C)(C)NC(=O)CN(Cc1cccs1)C(=O)C1COc2ccccc2O1 (stereo not given) : -6.0% | 1.1 | 4.5% | -11.0%
Entry for Cc1snc(SCC(=O)N/N=C(\N)COc2cccc(C(F)(F)F)c2)c1C#N : -3.4% | 1 | -0.2% | -3.5%
Entry for COc1ccc(S(=O)(=O)NC(CC(=O)NC2CCCC2)c2ccco2)cc1 (stereo not given) : -4.1% | 1.1 | 3.5% | -6.2%
Entry for CCOc1ccc(NC(=O)CCSc2nnc(C)s2)cc1 : -4.5% | 1.1 | 3.1% | -5.3%

(next part)
[46] CC1=C(/C=C/C(=O)O)C(C)(C)CCC1
[47] O=C(Nc1cccn(Cc2ccc(F)cc2)c1=O)NC1CCCCC1
[48] O/N=C/c1cc(Br)ccc1OCc1cccc(F)c1
[49] CCOc1ccc(Cl)cc1/C=N/O
[50] O=[N+]([O-])c1ccc(S(=O)(=O)Nc2ccc(-c3csc(-c4ccccc4)n3)cc2)cc1
[51] CCN(CC)c1ccc(/C=N/N2CCN(Cc3ccc(C)cc3)CC2)c(O)c1
[52] COC(=O)c1ccc(CSc2nnc(NC(C)C)s2)cc1
[53] N/C(Cc1cccs1)=N\OC(=O)COc1ccc(Br)cc1Cl

screen / no.	46	47	48	49	50	51	52	53
XIAP antagonists	-2.5%	-4.3%	-1.4%	-5.7%	1.9%	0.0%	-3.3%	-1.4%
TNAP activation fold	1	1	1.1	1.1	1.1	1	1.1	1.1
KOR agonists	-1.5%	-0.5%	3.0%	0.3%	-3.2%	2.3%	1.5%	1.3%
LYP phosphatase	-3.0%	-0.5%	4.8%	-8.6%	-2.1%	8.5%	-8.7%	-4.3%

The list is partial. The share of hits here may be higher or lower than overall.
